Screening results as filed in PubChem BioAssay.
Mtb hypoxia rep: Mtb hypoxia fluorescent reporter inhibition; M. tuberculosis hypoxia-regulated fluorescent reporter, fluorescence; fluorescence inhibition, % (concentration not given with the values); 0.1% of 300,000 active; AID 1159583;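 active means 35 to 45% if threefold the growth effect, above 45% if 1.5-fold the growth effect; inactive means the rest, general growth blockers included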;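 further: wells of about 50 µL received 100 nL stock; 0% = vehicle wells and 100% = reference inhibitor wells; whole bacteria with a GFP reporter of the hypoxia response; strong numbers were not always called active; many hits fall short of the cut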
PrP 5UTR inh: suppresses PrP 5' UTR mRNA reporter expression; cell-based PrP 5' UTR mRNA reporter, plate reader; inhibition, % (test concentration not listed); 0.35% of 340,000 active; AID 488862;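 active means every replicate at 50% or more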;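 further: 0 = median of the neutral control wells; tested in H4 reporter cells; numbers are from one replicate; inactives centre near -14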
BJeLR lethal: kills HRASV12-expressing BJeLR cells; 0.17% of 300,000 active; inhibition, % (concentration not given with the values); BJeLR (HRASV12) viability, CellTiter-Glo ATP luminescence, 48 h; reference of the scale not given here;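 active means replicate mean above 50%; inconclusive means above 50% but judged a plate artefact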;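 further: 50 nL library stock added to about 25 µL; numbers are from one replicate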
RN4220 kill: S. aureus RN4220 growth inhibition; OD600, 16 h; inhibition, % (test concentration not listed); 0.33% of 330,000 active;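 active means z-score of -3 or lower and OD600 up to 0.18 on both plates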;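 further: plate controls were untreated cells for no effect and reference antibiotic for full effect; stock transfer was 100 nL into about 80 µL; one replicate is shown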
Sa ugtP lethal: kills S. aureus RN4220 lacking UgtP | S. aureus RN4220 ugtP deletion, OD600 growth, 16 h; some inactives read as strong as hits | growth inhibition, % (no concentration beside the values) | 0.54% of 330,000 active | AID 1259309;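 active means z-score under -3 and OD600 up to 0.15 on both plates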;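 further: plate controls were untreated wells for no effect and antibiotic for full effect; wells of about 80 µL received 100 nL stock; the first replicate is given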
Bead autofluor: compound fluorescence in toxin protease inhibitor counterscreen; compound autofluorescence counterscreen, microsphere flow cytometry; hits give high values; fluorescence intensity (no concentration beside the values); 3.1% of 360,000 active; AID 624483;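 active means at least 3 SD above the mean of all compounds, about 16000 in these data; inconclusive means too few beads counted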;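 further: 100 nL of 1 mM stock went into each well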
Mtb hypoxia rep growth: second read-out of Mtb hypoxia rep, no call of its own (marks repeat the call); growth inhibition, %; measured here: M. tuberculosis growth (absorbance);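 0% = vehicle and 100% = reference antibiotic; read after six days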
Starred values were filed as active, the others as inactive; ? = inconclusive; . = no result given; & = joins results of further samples.

SMILES	Mtb hypoxia rep	Mtb hypoxia rep growth	PrP 5UTR inh	BJeLR lethal	RN4220 kill	Sa ugtP lethal	Bead autofluor
COc1cc(C(=O)N[C@H](C(=O)NC2CCCCCC2)C(C)C)cc(OC)c1OC	19.5	6.7	-14.1	-12.3	1.5	6.7	4558
CCN(CC)S(=O)(=O)c1ccc(N2CCOCC2)c(NS(=O)(=O)c2ccc(C)cc2)c1	9.9	7.1	-23.4	11.1	10.7	5.9	2443
O=C(CCn1c(=O)oc2ccccc21)NCc1ccc2c(c1)OCO2	1.2	6.8	-18.2	-6.5	8.6	-1.6	5176
O=C(O)/C=C\C(=O)NCc1cccnc1	4.6	7.9	-7.2	2.3	5.3	13.5	3617
Cc1c(C(=O)N2CCN(Cc3ccccc3)CC2)sc2ncnc(N3CCOCC3)c12	3.2	12.6	-15.2	-0.9	-4.9	33.7	8135
CC(NS(=O)(=O)c1ccc(OCC(=O)NCc2ccncc2)cc1)c1ccccc1 (configuration not stated)	-7.6	8.1	-4.4	-4.1	2.4	4.8	3763
CCCCOc1ccc(C(=O)NCC(=O)N2CC(C)OC(C)C2)cc1 (configuration not stated)	5.6	5.9	-6.2	.	4.2	1.8	6262
CN1C(=O)c2ccccc2OC1(C)Cc1ccccc1 (configuration not stated)	12.5	1.4	2.4	-14.6	6.2	1.3	2582
CCc1ccc(NS(=O)(=O)c2cccc3nonc23)cc1	11.3	16.2	-24.6	-3.0	4.5	0.0	4845
CC(C)OP(=O)(c1ccc(N(C)C)cc1)C(O)c1ccc(C(C)C)cc1 (configuration not stated)	-11.9	9.4	-17.2	0.8	1.6	-3.2	3302
COc1cccc(C(=O)OCC(=O)NCCC2=CCCCC2)c1	-0.5	16.3	11.5	.	2.1	-0.2	3687
O=C(NN1CCN(Cc2ccccc2Cl)CC1)c1ccc(Cl)cc1	-3.3	2.7	-3.6	-2.7	0.6	6.2	2538
Cc1noc(C)c1S(=O)(=O)Nc1ccc(C#N)cc1	4.3	-4.9	-21.6	-5.4	4.0	11.0	4174
O=C(O)C1CCC(CNS(=O)(=O)c2ccc(Br)cc2)CC1 (configuration not stated)	-7.9	-10.6	-16.6	13.1	-0.4	-4.5	4000
CCn1c(SCC(=O)NNC(=O)c2ccc(C)cc2)nnc1C(C)C	-1.6	4.6	-8.0	1.6	1.3	9.0	3900
O=C(COc1ccccc1[N+](=O)[O-])N1CCCc2ccccc21	11.0	10.4	-10.8	-3.8	1.1	12.7	3684
COc1cccc(NC2=NCCCS2)c1	6.7	-1.5	-4.7	-6.5	6.3	14.1	3065
O=C(CCC(=O)c1cccs1)NCc1ccc(F)cc1	6.0	12.3	-17.4	-6.8	3.9	0.2	16078
Oc1ccc(CC2CNCCN2CCc2cc(C(F)(F)F)cc(C(F)(F)F)c2)cc1 (configuration not stated)	13.3&17.4	4.0&16.1	.	.	-6.5&1.4	-6.1&-8.2	.
O=C(CSc1nc(-c2ccccc2)cc(=O)[nH]1)Nc1ccc(Br)cc1	-4.4	-4.9	-17.1	-8.1	3.6	1.4	3580
O=C(NN1C(=O)CSC1=S)c1cccnc1	-10.5	-6.4	.	5.7	1.7	2.3	4306
COc1ccc(CC2C(=O)OC(C)(C)OC2=O)cc1	.	.	2.9	-0.2	-0.4	-3.3	4044
COc1ccc(C2C3C(=O)N(C(C)(C)C)C(=O)C3[C@]3(CC(C)C)C(=O)N(c4ccc(C(F)(F)F)cc4)C(=O)N23)cc1 (some centres not stated)	-6.7	5.4	.	.	-5.3	-0.7	.
O=C(COc1ccc(/C=N/NC(=O)c2ccncc2)cc1)Nc1ccc([N+](=O)[O-])cc1	.	.	-7.1	-0.1	.	.	2986
CC1(C(=O)NC(=S)N(CCC#N)c2ccccc2)CC1(Cl)Cl (configuration not stated)	2.6	2.3	-29.4	-3.8	-0.5	-5.3	21445*
CN(C)c1ccc(N/C=C/C(=O)c2ccc(F)cc2)cc1	10.1	12.1	-114.5	5.2	6.6	-1.2	20250*
Nc1ncnc2c1ncn2[C@@H]1O[C@H](CNC(=O)[C@H]2CCC(=O)N2)[C@@H](O)[C@H]1O	-2.7	-1.7	-8.0	.	-6.1	-0.8	3144
CN(C)c1cccc(NC(=O)C2(C)CC2(Cl)Cl)c1 (configuration not stated)	15.2	11.8	2.7	1.6	7.5	-5.6	11134
COC(=O)CSc1nc(C)cc(C)c1C#N	0.3	-4.9	17.1	6.0	7.6	14.5	3798
Clc1c(-c2ccccc2)nnn1-c1ccccc1	0.5	-6.5	-83.5	18.7	4.1	-14.6	9930
Cc1c(C#N)c2ncnc(N)c2n1-c1ccccc1	.	.	-7.0	.	5.0	-2.7	4915
O=C(/C=N/O)Nc1cccnc1	.	.	-17.5	-2.5	.	.	8425
CC1=NCCc2c1[nH]c1cc(O)ccc21	-0.3	2.6	5.9	.	5.9	1.4	4016
CCOC(=O)c1cnc2cc(-c3ccc(C)cc3)nn2c1-c1ccccc1	5.2	12.4	-19.1	0.6	-1.5	20.4	3250
N/C(COc1ccccc1)=N\NC(=O)c1cccnc1Oc1ccccc1	.	.	-7.3	-2.1	0.7	-2.0	4695
Cc1cc(C(F)(F)F)nn1Cc1n[nH]c(=S)n1Cc1ccccc1	-7.3	0.5	-23.7	2.1	7.1	-8.4	9253
COc1ccc(/C=N\NC(=O)c2ccc(F)cc2)cc1COc1ccccc1C(N)=O	.	.	-18.1	0.2	.	.	5715
COc1ccccc1CNC(=O)[C@H](C)NC(=O)C1CCN(C(=O)[C@@H](N)Cc2ccccc2)CC1	.	.	-10.7	-2.3	2.5	-6.6	4054
O=C(Nc1ccccc1C(=O)O)c1cc(S(=O)(=O)Nc2ccccc2)ccc1Cl	.	.	-0.6	-7.6	.	.	4097
C/C(=N\NC(=O)c1nnn(-c2nonc2N)c1-c1ccc2c(c1)OCO2)c1ccccc1	.	.	3.2	-2.9	.	.	4229

Reprinted from the part before: three entries, then new ones.
SMILES	Mtb hypoxia rep	Mtb hypoxia rep growth	PrP 5UTR inh	BJeLR lethal	RN4220 kill	Sa ugtP lethal	Bead autofluor
COc1ccccc1CNC(=O)[C@H](C)NC(=O)C1CCN(C(=O)[C@@H](N)Cc2ccccc2)CC1	.	.	-10.7	-2.3	2.5	-6.6	4054
O=C(Nc1ccccc1C(=O)O)c1cc(S(=O)(=O)Nc2ccccc2)ccc1Cl	.	.	-0.6	-7.6	.	.	4097
C/C(=N\NC(=O)c1nnn(-c2nonc2N)c1-c1ccc2c(c1)OCO2)c1ccccc1	.	.	3.2	-2.9	.	.	4229
CCOC(=O)CC1C(=O)NCCN1S(=O)(=O)c1ccccc1 (configuration not stated)	0.2	11.5	11.4	5.1	3.4	-2.6	1980
Cc1ccc(N2C(=O)c3ccccc3C2C(=O)c2ccc(O)cc2O)cc1 (configuration not stated)	-16.1	-2.2	-17.5	-8.4	-0.6	30.2	2568
Cc1ccc(C)c(S(=O)(=O)N2CCCOC2CNC(=O)C(=O)NCc2ccncc2)c1 (configuration not stated)	12.2	18.9	-38.3	-3.5	1.4	14.1	2040
O=C(Nc1ccnn1C1CCN(C(=O)CCc2ccc(F)cc2)CC1)C1CCOC1 (configuration not stated)	-0.7	-0.1	-8.8	0.9	2.7	4.3	3984
COc1ccccc1C(=O)NCCc1nc2ccccc2n1C	0.5	7.2	12.5	-11.1	2.2	1.3	3324
OC(COc1cc(Cl)c(Cl)cc1Cl)CN1CCN(c2ncccn2)CC1 (configuration not stated)	0.1	4.7	-28.4	6.6	7.1	9.3	9644
CCOc1ccc(C(=O)n2cnnc2N)cc1	4.9	0.6	-27.1	6.3	1.9	5.2	5080
N#Cc1ccc(C(=O)NN2C(=O)NC3(CCCCC3)C2=O)cc1	4.6	0.0	-8.7	.	0.8	1.2	?
Cc1cc(C)cc(N(C(=O)Cn2nnc3ccccc32)C(C(=O)NCc2ccco2)c2ccncc2)c1 (configuration not stated)	.	.	-1.5	10.3	2.0	-2.4	2623
NS(=O)(=O)c1ccc(CCNC(=O)C2CCCCC2)cc1	-2.1	14.8	-8.7	4.1	-1.6	-5.0	5341
O=C(N/N=C\c1ccc(F)cc1)c1ccc(F)cc1	.	.	-77.1	-5.7	.	.	4290
COc1ccc(C(=O)NCCS(=O)(=O)N2CCc3ccccc3C2)cc1OC	-4.4	-0.5	-17.2	-5.8	1.6	4.5	.
COc1cccc(CCNC(=O)c2cc(COc3c(F)cccc3F)on2)c1	10.1	-4.6	4.0	-6.2	8.8	4.6	4433
COC(=O)c1ccc(CNC(=O)c2ccc3c(c2)NC(=O)CS3)cc1	10.3	4.8	.	.	0.6	4.2	.
COc1ccc(NC(=O)c2ccc(C#N)cc2)cc1NS(=O)(=O)c1ccc(F)cc1	14.9	6.2	-10.9	-9.7	4.7	4.3	2024
COc1ccc(C)cc1NC(=O)C(c1ccccc1)N1CCN(CC(=O)NC2CC2)CC1 (configuration not stated)	-5.5	-4.4	-2.8	.	-2.4	-2.7	?
COc1cc2[nH]c(=O)c(C(=O)NCCCN3CCCCC3)c(O)c2cc1OC	.	.	-10.4	-4.9	-2.0	13.7	3609
CCOc1ccc(N2C(=O)CC(N3CCOCC3)C2=O)cc1 (configuration not stated)	-1.1	-1.5	-9.9	13.6	3.2	4.9	6759
Cc1ccc(S(=O)(=O)NN=Cc2ccc(N3CCOCC3)cc2)cc1[N+](=O)[O-]	4.6	3.0	-14.8	.	1.7	1.2	7399
CCOC(=O)C(=NNc1ccccc1)N1CCCc2ccccc21	7.8	3.8	.	.	-2.8	-0.3	.

Sorted by heavy-atom count (largest number first): part of the list above
SMILES	Mtb hypoxia rep	Mtb hypoxia rep growth	PrP 5UTR inh	BJeLR lethal	RN4220 kill	Sa ugtP lethal	Bead autofluor
O=C(NN1CCN(Cc2ccccc2Cl)CC1)c1ccc(Cl)cc1	-3.3	2.7	-3.6	-2.7	0.6	6.2	2538
COc1cccc(NC2=NCCCS2)c1	6.7	-1.5	-4.7	-6.5	6.3	14.1	3065
O=C(/C=N/O)Nc1cccnc1	.	.	-17.5	-2.5	.	.	8425

The list goes on.
SMILES	Mtb hypoxia rep	Mtb hypoxia rep growth	PrP 5UTR inh	BJeLR lethal	RN4220 kill	Sa ugtP lethal	Bead autofluor
CCOc1ccc(NC(=O)CCN2CCN(C)CC2)cc1	6.2	14.2	-16.1	-15.5	3.3	10.8	4037
COc1ccc(S(N)(=O)=O)cc1C(=O)NC1CCCc2ccccc21 (configuration not stated)	4.3	6.1	-13.0	6.8	-1.2	6.2	3757
O=C(CCN1C(=O)/C(=C/c2ccccc2Cl)SC1=S)NNC(=O)c1ccccc1O	1.3	1.6	-10.7	6.5	1.4	-1.0	5651
CCCCCC(=O)Nc1ncc2c(n1)CC(c1cccs1)CC2=O (configuration not stated)	-1.6	-5.0	.	-2.2	1.4	2.7	5452
COc1ccc(OCC(=O)N/N=C(\C)CC(=O)Nc2ccc(OC)cc2[N+](=O)[O-])cc1	.	.	-14.7	-0.2	.	.	4047
CN1CCC(N(C)C(=S)NC(=O)c2cc(-c3cccc(Br)c3)nc3ccccc23)CC1	-3.0	1.5	39.1	9.5	4.4	1.0	3351
CC1(C)CC(=O)c2cn3nc(C(F)(F)F)nc3nc2C1	-17.8	-8.6	4.1	-0.1	2.0	-0.1	8301
CC(CCc1ccccc1)NC(=O)c1ccc(-n2cncn2)c([N+](=O)[O-])c1 (configuration not stated)	9.6	5.1	-10.8	-4.8	1.6	6.4	6699
CCOc1ccc(C=NNC(=O)c2c(C)nc3cc(C)ccn23)cc1	9.2	2.3	.	.	0.9	4.3	.
CCCNC(=O)C(Cc1ccccc1)NS(=O)(=O)c1ccc2c(c1)CCC(=O)N2 (configuration not stated)	.	.	1.9	-2.7	3.5	8.6	5816
CCOc1cc(C(=O)Nc2ccc([N+](=O)[O-])cn2)cc(OCC)c1OCC	6.0	10.6	-9.1	12.3	4.5	-1.6	2004
Cc1c(Cl)cnc(NC(=O)COC(=O)CCc2nc3ccccc3s2)c1Cl	-4.6	5.9	-5.6	0.2	3.4	2.9	2474
Cc1ccc(OCC(=O)N2CCN(C(=O)c3cccnc3)CC2)cc1	3.8	2.1	-10.6	2.3	5.5	3.1	3314
Cc1ccc(S(=O)(=O)c2nc(-c3ccco3)oc2SCC(=O)NCC2CCCO2)cc1 (configuration not stated)	2.5	2.2	-18.2	-12.8	5.0	0.9	6365
O=C(NN=Cc1ccco1)c1ccc(N2CCCC2=O)cc1	6.3	7.9	.	.	4.2	-0.6	.
